# From PubChem
# RanGTP-Imp inh: inhibitors of RanGTP-importin-beta interaction, primary screen, biochemical, FRET, CFP-Ran, YFP-importin-beta, homogeneous. Ran GTPase (GTP-bound) - importin-beta complex. cell-free CFP-Ran/YFP-importin-beta FRET ratio. inhibition, % (concentration not given with the values). actives 1.1% (n = 300,000). AID 2216, 2009;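 active = most replicates above 15%; inconclusive = exactly half above 15%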;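 also: 0% = DMSO wells and 100% = Ran loaded with GDP instead of GTP; wells of about 40 µL received 100 nL stock; the first replicate is given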
# ALR H2O2 inh: inhibitors of human ALR sulfhydryl oxidase, primary screen, biochemical, H2O2 detection, HRP-luminol luminescence, single point; purified ALR, DTT oxidation; inhibition, % (test concentration not listed); actives 3.8% (n = 290,000);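 active = mean and each replicate at 75% or more; inconclusive = only one of the two met; inactive = neither met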;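 also: stock transfer was 7.5 nL into about 7.5 µL; 0% = neutral wells and 100% = wells with inactivated enzyme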
# Target sequence (P55789 whole entry, looked up): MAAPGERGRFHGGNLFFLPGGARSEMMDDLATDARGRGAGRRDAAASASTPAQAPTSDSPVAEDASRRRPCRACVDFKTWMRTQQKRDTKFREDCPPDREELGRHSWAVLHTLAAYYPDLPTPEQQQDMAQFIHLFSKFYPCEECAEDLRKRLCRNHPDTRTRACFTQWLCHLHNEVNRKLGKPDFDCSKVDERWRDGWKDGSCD
# Vif TR-FRET: inhibitors of Vif binding to APOBEC3G peptide, primary screen, biochemical, TR-FRET, GST-Vif 1-94, biotin-A3G peptide, dose response retest (AID 1117319); Virion infectivity factor (Human immunodeficiency virus type 1 group M subtype B (isolate …; TR-FRET GST-Vif / biotin-A3G peptide binding; higher % means a stronger effect; test concentration not given here; strong numbers were not always called active; one-dose inhibition, %; IC50 in µM for titrated hits; actives 0.57% (n = 260,000);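 active = above the screen mean plus three standard deviations and confirmed in dose response; inconclusive = results disagree or hit not tested in dose response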;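 also: Vif residues 1-94 fused to GST binding biotinylated APOBEC3G peptide 110-148; 0% = full assay without inhibitor and 100% = GST in place of GST-Vif; retest series ran down from 100 µM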
# LANA-H2A inh: blockers of LANA interaction with H2A/H2B – biochemical, FP readout, HTS, primary screen | actives 0.6% (n = 320,000) | cell-free LANA-H2A/H2B peptide, fluorescence polarization | Protein LANA1 (Human herpesvirus 8 type P (isolate GK18)), Q9QR71 | inhibition, % (test concentration not listed); in the data active = inhibition mostly above about 10%, no sharp cut-off; inactive = mostly below about 6.7%;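 also: stock transfer was 7.5 nL into about 10 µL; 0% = median of vehicle wells and 100% = median of positive control wells; one replicate is shown; the record names a cut of 25% in any replicate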
# B2AR ag: beta2AR agonists driving receptor internalization, primary screen, cell-based, FAP fluorogen, flow cytometry. response, % (test concentration not listed). Beta-2 adrenergic receptor (Homo sapiens), P07550. Am2.2-beta2AR cells; reference of the scale not given here. AID 504454, 2011. actives 0.43% (n = 340,000);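 active = response above a set limit, near 3 SD of response in nonfluorescent compounds, cut at about 42% in these data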;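 also: stock transfer was 100 nL into about 11 µL; a reference agonist was the positive control; negative values mostly stem from fluorescent compounds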
# Target sequence (P07550 whole entry, looked up): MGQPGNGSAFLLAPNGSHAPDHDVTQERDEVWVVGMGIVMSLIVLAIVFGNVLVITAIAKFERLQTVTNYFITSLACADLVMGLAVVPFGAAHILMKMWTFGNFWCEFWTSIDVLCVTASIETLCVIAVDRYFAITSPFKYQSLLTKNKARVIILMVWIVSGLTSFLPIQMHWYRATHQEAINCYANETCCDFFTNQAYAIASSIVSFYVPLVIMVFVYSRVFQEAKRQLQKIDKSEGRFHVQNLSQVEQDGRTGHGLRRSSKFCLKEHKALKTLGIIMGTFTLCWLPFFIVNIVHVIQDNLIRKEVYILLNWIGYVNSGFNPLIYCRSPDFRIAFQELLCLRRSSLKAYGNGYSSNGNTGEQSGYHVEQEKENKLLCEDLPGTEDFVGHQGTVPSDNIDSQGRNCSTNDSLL
# Calb FLC: C. albicans growth inhibition with fluconazole, primary screen, CaCi-2 strain, Alamar Blue fluorescence | growth inhibition, % (test concentration not listed) | actives 0.57% (n = 300,000) | AID 1979, 2009 | C. albicans CaCi-2 (fluconazole-resistant clinical isolate) + fluconazole, 48 h;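 active = most replicates above 75%; inconclusive = exactly half above 75%; inactive = most below 75%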;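 also: all wells also contain fluconazole at 8 µg/ml as a sub-toxic cotreatment; 0% = median of DMSO wells and 100% = median of geldanamycin control wells; wells of about 8 µL received 7.5 nL stock; the first replicate is given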
# HNF4A DNA FP: change in binding of human HNF4A to DNA, primary screen, biochemical, fluorescence polarization, FITC-DNA; 1 h; AID 1224865, 2016; activity change, % at 10 µM; actives 0.3% (n = 360,000); Hepatocyte nuclear factor 4-alpha (Homo sapiens), P41235; in the data active = activity change above about 30%, passing the limit was not always enough;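 also: controls were the assay level and a saturating level of protein; the project sought stronger binding though the title names inhibitors; some compounds called inactive have numbers as strong as hits; positive values seem to mean higher polarization but the record does not say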
# Target sequence (P41235 whole entry, looked up): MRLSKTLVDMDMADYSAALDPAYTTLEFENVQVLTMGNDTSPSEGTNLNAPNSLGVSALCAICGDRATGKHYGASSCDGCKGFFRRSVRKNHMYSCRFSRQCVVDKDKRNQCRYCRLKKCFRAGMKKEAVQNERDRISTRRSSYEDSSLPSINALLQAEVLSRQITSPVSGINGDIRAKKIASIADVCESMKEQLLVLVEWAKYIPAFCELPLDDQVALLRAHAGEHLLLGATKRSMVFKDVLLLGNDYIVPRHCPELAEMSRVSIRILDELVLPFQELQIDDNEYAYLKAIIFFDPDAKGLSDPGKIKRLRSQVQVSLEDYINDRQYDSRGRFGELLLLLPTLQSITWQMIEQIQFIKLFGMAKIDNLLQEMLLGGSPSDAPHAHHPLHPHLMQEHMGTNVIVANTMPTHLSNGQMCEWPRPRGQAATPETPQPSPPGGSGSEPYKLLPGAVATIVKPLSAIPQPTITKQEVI
# Active calls of the source: *; ? = inconclusive; . = not tested or not shown; & = joins results of further samples. Hits appear at their usual frequency; any-hit rate near 6.3%.
SMILES,RanGTP-Imp inh,ALR H2O2 inh,Vif TR-FRET,LANA-H2A inh,B2AR ag,Calb FLC,HNF4A DNA FP
CC(NC(=O)COC(=O)C1CC1C)c1cccc(Cl)c1 (stereo not given),.,0,.,0.8,2,.,1.6
Nc1nnc(SCC(=O)NNC(=O)c2ccc(Cl)cc2)s1,.,6,-12%,3.4,-2,.,1.6
CCn1c(CCNC(=O)c2ccc(Cl)cc2Cl)n[nH]c1=S,?,33,-1%,-5.7,4,4,1.2
COc1ccccc1-n1c(CNC(=O)c2ccc(S(=O)(=O)N3CCOCC3)cc2)n[nH]c1=S,1.7,10,-4%&-6%,-3.8,0,7,-2.5
O=C(NCc1ccncc1)Nc1ccccc1Cl,2.3,-13,13%,3.9,-3,-7,0.9
O=C1NC(CCO)C(=O)NC1CCO (stereo not given),.,.,2%,.,1,.,-3.0
CCOC(=O)NC(=O)/C(C=Nc1ccc(Cl)c(Cl)c1Cl)=C(\C)O,-3.1,-7,-2%,2.2,1,-12,1.5
Cc1ccc(NC(=O)CN2CCC(NC(=O)C3CCCCC3)CC2)c(Br)c1,.,-1,.,0.0,0,-6,-0.4
Cc1cccc(NC(=O)c2nc[nH]c2C(=O)NCC(=O)OC(C)(C)C)c1,1.2,-2,5%,-5.0,0,17,-7.4
Cc1ccc(CNC(=O)C2CCN(S(=O)(=O)c3c(C)noc3C)CC2)cc1,0.2,4,-3%,-0.3,-5,9,2.5
O=C(Nc1ccc(Cl)cc1C(=O)N1CCCC1)c1cccc([N+](=O)[O-])c1,0.8,.,-2%,-0.6,-7,-9,2.1
CCOCCCNc1ccc(-c2ccccc2)nn1,-4.4,-35,3%,4.5,3,3,3.8
CCOC(=O)c1sc(NC(=O)c2ccc(S(=O)(=O)N3CCCCC3)cc2)nc1-c1ccccc1,3.6,22,-6%,1.2,12,-30,-1.9
CC(=O)CCC1C2C(O)C(C(C)C)C(OC(=O)/C=C/c3ccccc3)CC12C (stereo not given),-1.5,-4,.,-3.3,-4,-15,2.3
O=C(O)COc1ccc(S(=O)(=O)N2CCCC2)cc1,1.7,-1,.,-1.0,1,2,-2.1
COc1ccc(-c2cn3cccnc3n2)cc1F,0.7,14,.,-0.5,-33,5,-2.5
CCCC(=O)Nc1ccc2oc(-c3cccnc3)nc2c1,0.3,.,-2%,-2.3,-23,-3,-2.2
CC(C)c1ccc(CN(C)CC(O)c2ccccc2)cc1 (stereo not given),-3.6,0,-4%,-4.5,-1,-9,7.2
COc1ccc(CN(C(=O)Cc2c[nH]c3ccccc23)C(C(=O)NC2CCCCC2)c2ccc(C)o2)cc1 (stereo not given),1.5,-1,0%,5.8,9,15,1.4
COc1cccc(CC(=O)N2CCCC(CCC(=O)N3CCN(c4ccccn4)CC3)C2)c1 (stereo not given),4.6,2,10%,-4.1,-8,4,-0.4
Cc1nn(-c2ccccc2)c(Cl)c1/C=N/NC(=O)CNC(=O)c1ccccc1Cl,1.2,-2,6%,-6.9,1,-11,4.6
COc1cccc(-c2c(-c3cc(OC)cc(OC)c3)n(C)c3ccc(-c4ccc(OC)nc4)cc23)c1,.,59,.,1.4,1,.,-4.9
CC1CCC2(CC1)NC(=O)N(CC(=O)Nc1ccc3[nH]c(=O)[nH]c3c1)C2=O (stereo not given),-2.7,-9,5%,-2.4,-1,.,-1.6
CC(Oc1ccc(F)cc1)C(=O)Nc1cccc(-c2nn[nH]n2)c1 (stereo not given),.,4,.,-6.5,-3,.,-1.1
CC1(c2nnc(-c3ccc(Cl)cc3)o2)CC(c2c(Cl)cccc2Cl)=NO1 (stereo not given),-2.8,.,-1%,-1.0,-14,6,0.9
SMILES,RanGTP-Imp inh,ALR H2O2 inh,Vif TR-FRET,LANA-H2A inh,B2AR ag,Calb FLC,HNF4A DNA FP
O=[N+]([O-])c1cc(CS(=O)(=O)Oc2ccc(Cl)cc2)c(O)c([N+](=O)[O-])c1,-0.9,2,.,3.0,-2,-14,-1.6
COc1ccc(-c2ccc(C(c3c(C)[nH][nH]c3=O)c3c(C)[nH][nH]c3=O)o2)c([N+](=O)[O-])c1,.,.,12%,.,7,.,-3.1
CCOC(=O)c1nnn(-c2ccccc2)c1C,4.1,0,27%,-1.0,3,39,16
CSc1n[nH]c(=O)n1-c1ccc(Cl)cc1,-2.0,1,-1%,-0.5,3,-5,-2.8
CCOC(=O)N(Cc1ccccc1)C(C(=O)O)C(C(=O)O)N(Cc1ccccc1)C(=O)OCC (stereo not given),6.0,.,-5%&-2%,5.0,-16,12,0.2
Cc1cc2c(ncn2C)c(NS(=O)(=O)c2ccc(Cl)cc2)c1C,0.7,-1,4%,3.9,-4,6,0.0
COc1ccc([C@@H]2C[C@@H](c3ccccc3)Oc3cc(OC)c(OC)c(OC)c32)cc1,-0.4,.,0%,.,-4,1,-1.2
COc1ccc(OC)c(NC(=O)c2cnn(-c3ccccc3)c2C)c1,-2.5,-9,.,1.2,-5,9,1.1
NC(=O)COC(=O)c1sc2ccccc2c1Cl,?,-1,-7%,-1.7,-6,-5,0.9
CC(=O)C(Cc1cccc(F)c1)(Cc1cccc(F)c1)C(C)=O,9.1,0,-4%,0.0,1,-7,-4.7
Cc1n(N)c2ccccc2[n+]1CC(=O)c1ccccc1,-2.7,-9,1%,-2.3,-4,-23,-5.2
O=C(Nc1ccc(NC(=O)C2CCCCC2)nc1)c1ccccn1,4.0,99*,1%,2.6,-3,-5,-0.6
Cn1c(SC(C(=O)Nc2ccc(F)cc2)c2ccccc2)nc2ccccc21 (stereo not given),1.4,-2,.,-0.3,-3,-3,0.8
O=C(N/N=C/C=C\c1ccco1)c1ccccn1,0.2,-3,.,0.3,4,-6,0.3
C/C(=N\NC(=O)CO/N=C(\C)c1cccs1)c1ccc(N)cc1,-0.9,-7,-2%,-3.9,8,-6,2.0
Cc1ccc(C(=O)OCC(=O)N(C)C2CCS(=O)(=O)C2)cc1S(=O)(=O)N1CCCCC1 (stereo not given),?,-1,1%,-4.3,3,-10,-2.6
Cc1cc(N2C(=O)C(O)=C(C(=O)c3ccco3)C2c2ccc(O)cc2)no1 (stereo not given),1.0,2,-6%,13,-1,-14,-0.9
Cc1ccc(NC(=O)c2nc[nH]c2C(=O)N[C@H](C)c2ccccc2)cc1,.,-4,.,-1.0,5,.,0.6
O=C(CNC(=O)C1CC1)Nc1ccc(F)c(F)c1F,.,-14,2%,-1.7,-2,.,1.4
COC(=O)C1=C(C)NC(=O)/C1=C\c1cc(C)n(-c2ccccc2)c1C,-3.8,3,?,-3.9,1,-6,2.0
CCn1cc(C(=O)NCC(=O)NCCCN2CCOCC2)c(=O)c2cc3c(cc21)OCO3,-3.2,-2,.,5.0,-5,1,-0.1
COc1cccc(CN2C(=O)CCC2(C)C(=O)NC2CCCC2)c1 (stereo not given),9.0,.,13%,2.7,10,20,-2.0
O=C(O)CCCC(=O)Nc1cccc2cccnc12,2.9,-25,28%,-0.4,9,-3,2.8
COc1ccc(NC(=O)C(=O)NNC(=O)C(C)Oc2ccc(Cl)cc2Cl)cc1 (stereo not given),2.4,0,4%,-3.1,-4,21,0.1
Cc1ccc(C)c(N2CCN(C3CCCCC3NS(=O)(=O)c3ccccc3)CC2)c1 (stereo not given),0.7,-10,0%,-10,15,-27,3.7

# Looked up above.
# CCOC(=O)c1nnn(-c2ccccc2)c1C | ALR H2O2 inh: 0
# O=C(Nc1ccc(NC(=O)C2CCCCC2)nc1)c1ccccn1 | Calb FLC: -5
# COc1cccc(CN2C(=O)CCC2(C)C(=O)NC2CCCC2)c1 (stereo not given) | LANA-H2A inh: 2.7

# 3 compounds drawn at random from those above, as already listed:
SMILES,RanGTP-Imp inh,ALR H2O2 inh,Vif TR-FRET,LANA-H2A inh,B2AR ag,Calb FLC,HNF4A DNA FP
Cc1n(N)c2ccccc2[n+]1CC(=O)c1ccccc1,-2.7,-9,1%,-2.3,-4,-23,-5.2
Cc1ccc(NC(=O)c2nc[nH]c2C(=O)N[C@H](C)c2ccccc2)cc1,.,-4,.,-1.0,5,.,0.6
COc1ccc(-c2ccc(C(c3c(C)[nH][nH]c3=O)c3c(C)[nH][nH]c3=O)o2)c([N+](=O)[O-])c1,.,.,12%,.,7,.,-3.1

# Continued:
SMILES,RanGTP-Imp inh,ALR H2O2 inh,Vif TR-FRET,LANA-H2A inh,B2AR ag,Calb FLC,HNF4A DNA FP
COc1ccc2nc(SCC(=O)NC3CCCc4ccccc43)[nH]c2c1 (stereo not given),-1.5,5,.,-4.4,0,1,-3.4
COc1ccccc1CNS(=O)(=O)c1ccc2c(c1)NC(=O)CS2,0.5,5,7%,-16,8,?,-3.8
CC1CCCCN1CC(=O)Nc1ccc(Oc2ccccc2)cc1 (stereo not given),0.3,-2,-5%,-12,1,-23,0.8
CCOC(=O)c1c(NC(=O)COC(=O)CNC(=O)c2ccco2)sc(C(C)=O)c1C,-1.3,.,-21%,.,5,-1,3.8
O=C(NCC1COc2ccccc2O1)c1c[nH]c2ccc(S(=O)(=O)N3CCOCC3)cc2c1=O (stereo not given),.,.,1%,.,-5,.,-2.0
COc1ccc(CCn2c(=N)c(C(=O)NCCN3CCOCC3)cc3c(=O)n4ccccc4nc32)cc1OC,-0.6,-4,-3%,-4.9,-4,3,6.2
CN(C)S(=O)(=O)c1cccc(C(=O)OCC(=O)Nc2ccc3c(c2)OCCO3)c1,.,2,.,1.1,-1,.,1.7
CCn1c2ccccc2c2cc(/C=N/NC(=O)c3cccc(C)c3)ccc21,-2.6,-13,21%,3.0,12,3,7.4
O=C(Cn1nnc2ccccc2c1=O)NC1CCCCC1,2.9,-2,.,-1.5,-6,-6,1.1
COc1ccc(/C(O)=C/C(=O)C(=O)NNC(=O)c2ccccc2)cc1,4.7,.,1%,-6.6,9,4,-2.1
N#C/C(=C/c1ccc(-c2ccccc2)o1)c1nc(-c2cccs2)cs1,.,.,2%,-1.0,-402,.,17
COc1ccc(CNC(=O)COc2cc(=O)n(C)c3ccccc23)cc1,0.1,-1,-3%,3.2,-15,-1,2.8
O=C(NCc1ccccc1F)C1CCN(C(=O)c2sccc2-n2cccc2)CC1,0.2,-5,?,0.2,8,-5,0.1
O=C(Nc1ccccc1)N1CC=C(c2ccccc2)CC1,2.7,-10,5%,-4.7,.,4,.
CCc1ccccc1NC(=O)CSc1nnc([C@@H](N)Cc2ccccc2)o1,.,-6,17%,-1.7,-2,.,-1.8
Cc1cccc(C)c1-n1nnnc1SCSc1nnnn1-c1c(C)cccc1C,12,-6,-4%&3%,2.1,0,11,2.1
Cc1ccc(-c2nc3ccccc3nc2Cl)cc1,1.3,91*,-3%,-1.1,-9,-9,1.0
Cc1cc(N2CCOCC2)nc(SCc2ccc(Cl)cc2Cl)n1,-1.6,.,0%,-4.5,1,11,3.5
COc1ccccc1CCNC(=O)C(C)n1nc(C)c2c(C)n(-c3ccccc3)nc2c1=O (stereo not given),5.2,-14,-5%,-3.6,-1,6,-0.4
CC(C)CC(=O)NC(=S)Nc1ccc(N2CCOCC2)c(Cl)c1,.,0,-4%,-1.6,0,3,-1.7

# 2 neighbouring records from above, quoted:
SMILES,RanGTP-Imp inh,ALR H2O2 inh,Vif TR-FRET,LANA-H2A inh,B2AR ag,Calb FLC,HNF4A DNA FP
COc1ccccc1CCNC(=O)C(C)n1nc(C)c2c(C)n(-c3ccccc3)nc2c1=O (stereo not given),5.2,-14,-5%,-3.6,-1,6,-0.4
CC(C)CC(=O)NC(=S)Nc1ccc(N2CCOCC2)c(Cl)c1,.,0,-4%,-1.6,0,3,-1.7
